Menin-MLL FL inh: inhibitors of human menin-MLL interaction, wild-type MLL peptide; Fluorescence polarization, fluorescein-MLL peptide displacement from menin; FP activity change, % at 61.4 µM; 290,000 tested, under 10 active; inconclusive = falling polarisation curve, or a change in total fluorescence; inactive = total fluorescence flat and polarisation flat or rising; no compound was filed as active; the % refers to the polarisation; negative = inhibition;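 also: % of control where 0% means no effect; inhibitors lower the polarisation; unlabelled MLL peptide was the positive control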
TRPV1 potentiator: enhances activation of the human vanilloid receptor TRPV1; Q8NER1; TRPV1-expressing cells, Fluo-8 calcium influx, capsaicin EC20 potentiation; host cell line not named in the record; control for the full effect not named in the record; potentiation, % at 8.33 µM; actives 0.02% (n = 320,000); AID 540277; active means potentiation above 80%; inconclusive means 30% to 80%; inactive means below 30%; also: 0% is about no effect
Target sequence (Q8NER1 whole entry, looked up): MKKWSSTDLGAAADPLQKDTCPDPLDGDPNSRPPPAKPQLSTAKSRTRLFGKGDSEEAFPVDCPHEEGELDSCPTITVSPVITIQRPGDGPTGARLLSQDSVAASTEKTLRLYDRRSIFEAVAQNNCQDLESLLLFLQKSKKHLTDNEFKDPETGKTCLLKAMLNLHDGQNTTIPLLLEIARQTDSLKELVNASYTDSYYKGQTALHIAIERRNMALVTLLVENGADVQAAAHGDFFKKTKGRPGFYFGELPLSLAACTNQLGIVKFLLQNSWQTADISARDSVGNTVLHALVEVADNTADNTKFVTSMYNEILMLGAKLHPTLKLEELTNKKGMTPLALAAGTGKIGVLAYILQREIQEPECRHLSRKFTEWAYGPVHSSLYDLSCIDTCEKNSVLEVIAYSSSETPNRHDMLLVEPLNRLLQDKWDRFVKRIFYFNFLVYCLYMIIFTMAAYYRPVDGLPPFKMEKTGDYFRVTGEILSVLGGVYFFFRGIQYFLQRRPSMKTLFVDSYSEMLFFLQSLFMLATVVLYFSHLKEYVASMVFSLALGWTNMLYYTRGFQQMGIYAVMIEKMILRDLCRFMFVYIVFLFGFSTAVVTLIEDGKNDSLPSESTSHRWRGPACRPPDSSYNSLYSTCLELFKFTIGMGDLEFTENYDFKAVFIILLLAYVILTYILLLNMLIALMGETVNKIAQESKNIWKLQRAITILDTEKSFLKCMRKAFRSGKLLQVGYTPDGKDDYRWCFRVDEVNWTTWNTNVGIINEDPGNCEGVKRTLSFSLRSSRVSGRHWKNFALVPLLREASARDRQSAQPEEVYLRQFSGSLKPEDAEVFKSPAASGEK
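TRPV1-expressing cells were cultured overnight at 35.5C and loaded with Fluo-8 calcium dye for 40 to 90 min at room temperature. After a 10 s baseline, compound was added and calcium influx was read kinetically for 3 min (ex 480/em 520 nm).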
CtBP-E1A blk: CtBP/E1A binding inhibition. actives 0.49% (n = 340,000). AID 651724. AlphaScreen GST-E1A/His-CtBP binding, 1536-well; stronger effect = lower value; control for the full effect not named in the record. activity change, % (concentration not given with the values); in the data active means activity change below about -65%; inconclusive means about -30% to -65%; inactive means above about -30%; also: % is scaled to controls: 0 for no effect and ±100 for the full control effect
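Homogeneous bead-based format: GST-tagged E1A captured on glutathione donor beads, His-tagged CtBP on nickel acceptor beads; compounds precede bead addition by 2 h at 37 °C.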
gsp agonist: activates gsp, the McCune-Albright syndrome mutation. gsp mutant cells, cAMP HTRF, 30 min; control for the full effect not named in the record. Potency, µM (series often up to 76.9 µM), for inactives: at the highest dose activation (cAMP increase), hits mostly activators. actives 0.13% (n = 340,000). AID 624287; active = well fitted activation curve with a large enough effect; inconclusive = small, poorly fitted or top-dose-only effect, or another doubt; inactive = no such curve, though single readings can be large or run the other way; cell line not stated here;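 also: phosphodiesterase inhibitor Ro 20-1724 added with compounds to block cAMP breakdown; potency is read from the fitted curve at half-maximal effect; nearly all actives have a fitted effect of over 60% in size; about a fifth of the inactives were tested at one dose only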
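Cells in DMEM/10% FBS with G418 were pretreated with compounds in DMSO plus […] (300 uM stock) for 30 min at 37C. cAMP was measured by HTRF (cAMP-d2 plus anti-cAMP antibody-K) after 30 min at room temperature.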
gsp antag: antagonizes gsp, the McCune-Albright syndrome mutation; gsp-mutant cells, cAMP HTRF, 30 min; control for the full effect not named in the record; Potency, µM (top dose mostly 76.9 µM), without a hit: at the top dose activity change, negative = inhibition, hits mostly inhibitors; actives 0.4% (n = 340,000); AID 624288; active = falling curve of any shape with a large fitted effect; inconclusive = falling curve, mostly with a smaller effect; inactive = flat or rising curve; cell line not stated here;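 also: intracellular cAMP measured with PDE inhibitor Ro 20-1724 present during compound exposure; potency is read from the fitted curve at half-maximal effect; % is scaled to controls: 0 for no effect and ±100 for the full control effect; nearly all actives have a fitted effect of over 65% in size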
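Cells, 2000/well, grown 16–24 h in DMEM 10% FBS with 0.5 mg/ml G418, then compounds plus […] (300 uM addition stock), 30 min at 37C. cAMP read by HTRF (cAMP-d2 and anti-cAMP antibody-K in lysis buffer) after 30 min RT.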
ClpP mod: qHTS Assay for Activators of ClpP; ATP-dependent Clp protease proteolytic subunit (Bacillus subtilis (strain 168)), P80244; AID 651965, 2013; Potency, µM (highest dose often 57.5 µM), for the others: at the highest dose activity change, negative = active; actives 1.9% (n = 340,000); purified B. subtilis ClpP, FRET peptide cleavage, 20 min; active = well fitted falling curve with a large enough effect; inconclusive = small, poorly fitted or top-dose-only effect; inactive = no such curve, though single readings can be large or run the other way; also: potency is read from the fitted curve at half-maximal effect; the source files actives as falling curves though it sought activators and does not explain the sign; nearly all actives have a fitted effect of over 65% in size; many hits overshoot -100%
Target sequence (P80244 whole entry, looked up): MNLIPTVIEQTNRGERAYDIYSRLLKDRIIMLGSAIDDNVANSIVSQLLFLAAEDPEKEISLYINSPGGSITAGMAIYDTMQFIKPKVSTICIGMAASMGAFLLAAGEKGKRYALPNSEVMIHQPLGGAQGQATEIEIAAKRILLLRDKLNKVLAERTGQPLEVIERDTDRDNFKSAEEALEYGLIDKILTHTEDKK
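Purified B. subtilis ClpP, 10 microg/mL final in Tris/HCl pH8 with KCl, BSA, glycerol and Tween-20, cleaved an Abz/nitrotyrosine-quenched decapeptide. Fluorescence (ex 320, em 430) was read at 0 and 20 min at room temperature. Delta was normalized to 5.8 microM ADEP and DMSO/no-enzyme controls.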
Sfp inh: Sfp phosphopantetheinyl transferase inhibition; Q9F4F7; Biochemical Sfp PPTase activity, qHTS; Potency, µM, for inactives: max response, negative = inhibition, hits mostly inhibitors; actives 3.5% (n = 310,000); active = well fitted inhibition curve with a large enough effect; inconclusive = small, poorly fitted or top-dose-only effect, or another doubt; inactive = no such curve, though single readings can be large or run the other way;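 also: the enzyme is Sfp with the accession as filed and its product quenches rhodamine fluorescence; potency is read from the fitted curve at half-maximal effect; 0% = enzyme reaction without inhibitor and -100% = no enzyme wells; top concentration of the series not given in the record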
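Reaction rates are the 30-min fluorescence difference (ex 525, em 598 nm) in wells containing 15 nM Sfp, 5 uM rhodamine-CoA and 12.5 uM BHQ-2-YbbR at pH 7.6 with 10 mM MgCl2.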
The depositor's hits bear a star; [ ] = remark or other dose.

`Cc1ccc(S(=O)(=O)c2nc(-c3ccccc3F)oc2N2CC(C)OC(C)C2)cc1` (stereo not drawn) gave Menin-MLL FL inh 1.7, TRPV1 potentiator -15, CtBP-E1A blk 7, gsp agonist -1%[15.4 µM], gsp antag -15%, ClpP mod -5.0% and Sfp inh inconclusive.
For O=C(Nc1ccccc1)NN1CC(=O)N(c2ccc(Cl)cc2)CC1=O the results were Menin-MLL FL inh 0.3, TRPV1 potentiator 1, CtBP-E1A blk 11, gsp agonist 8%[15.4 µM], gsp antag -7%, ClpP mod inconclusive and Sfp inh 23%.
Screening CCn1c(COc2ccc(C)cc2)nc2ccccc21 returned Menin-MLL FL inh -0.2, TRPV1 potentiator -3, CtBP-E1A blk -14, gsp agonist -4%[15.4 µM], gsp antag -12%, ClpP mod inconclusive and Sfp inh -21%.
`COc1ccccc1N(CCC#N)C(=O)CSc1ccc2c(c1)OCCO2` gave Menin-MLL FL inh 3.2, TRPV1 potentiator -5, CtBP-E1A blk 1, gsp agonist 16%, gsp antag -9%, ClpP mod 0.4% and Sfp inh -8%.
For Cc1ccc(CSCC(=O)N(C)CC(=O)Nc2ccc(C)cc2)cc1 the results were TRPV1 potentiator -2, CtBP-E1A blk 3, gsp agonist 2%[15.4 µM] and gsp antag -1%.
For O=C1[C@H]2[C@@H](c3ccc(Cl)cc3)N3C(=O)N(c4cccc(Cl)c4)C(=O)[C@@]3(Cc3ccc(Cl)cc3)[C@H]2C(=O)N1C1CCCCC1 the results were TRPV1 potentiator 2, CtBP-E1A blk -5, gsp agonist -62%[inhibitor], gsp antag -7% and ClpP mod -1.6%.
Screening COc1ccc(CN2CCN(C3CCOCC3)CC2CCO)c(C)c1C (stereo not drawn) returned Menin-MLL FL inh -0.1, TRPV1 potentiator 3, CtBP-E1A blk 12, gsp agonist -30%, gsp antag 19%, ClpP mod 1.1% and Sfp inh 18%.
CN1CCN(CCCNC(=O)c2ccc(/C=C3\Sc4ccccc4N(Cc4ccc(F)cc4)C3=O)cc2)CC1 was read as Menin-MLL FL inh 8.7, TRPV1 potentiator inconclusive, gsp agonist 1%, gsp antag 2%, ClpP mod -4.3% and Sfp inh 45µM*.
Screening CCOC(=O)C1NC(=O)CC1c1ccccc1 (stereo not drawn) returned Menin-MLL FL inh 2.1, TRPV1 potentiator -11, CtBP-E1A blk -6, gsp agonist 17%, gsp antag 6%, ClpP mod -2.6% and Sfp inh 6%.
O=C(NCC1CCCN1S(=O)(=O)c1cccs1)C(=O)Nc1ccccc1F (stereo not drawn) was read as CtBP-E1A blk -10, gsp agonist inconclusive and ClpP mod -1.3%.
O=C(CN1CCN(c2ccccn2)CC1)NC1CCCCC1 was read as Menin-MLL FL inh 2.4, TRPV1 potentiator 7, CtBP-E1A blk 3, gsp agonist -39%, gsp antag 3%, ClpP mod -5.2% and Sfp inh 14%.
O=C(Nc1nc(-c2ccc(S(=O)(=O)N3CCCCCC3)cc2)cs1)c1cccs1 was read as Menin-MLL FL inh 4.1, TRPV1 potentiator 18, CtBP-E1A blk -70*, gsp agonist 23%, gsp antag 7%, ClpP mod inconclusive and Sfp inh 6%.
`O=C(CSc1ccccc1)N1CCN(C(=O)c2ccco2)CC1` gave Menin-MLL FL inh 0.3, TRPV1 potentiator 5, CtBP-E1A blk 14, gsp agonist 9%, gsp antag -2%, ClpP mod 1.5% and Sfp inh 15%.
For O=C(Nn1cnnc1)c1ccc(Cl)c([N+](=O)[O-])c1 the results were Menin-MLL FL inh -1.1, CtBP-E1A blk -10, gsp agonist -4%, gsp antag 3% and Sfp inh 1%.
Screening CCCCOC(=O)CCn1c(=S)oc2ccccc21 returned Menin-MLL FL inh 2.3, TRPV1 potentiator -11, CtBP-E1A blk 10, gsp agonist inconclusive, gsp antag -7%, ClpP mod -1.0% and Sfp inh 6%.
For O=C(Nc1ccc(Cl)cc1N1CCOCC1)C1CCCO1 (stereo not drawn) the results were Menin-MLL FL inh -3.3, TRPV1 potentiator -3, CtBP-E1A blk 10, gsp agonist -5%, gsp antag -9%, ClpP mod 1.2% and Sfp inh 5%.
Screening CCCn1nc(NC(=O)C2CCCO2)c2cc3cccc(C)c3nc21 (stereo not drawn) returned Menin-MLL FL inh 2.9, TRPV1 potentiator -11, CtBP-E1A blk 64, gsp agonist 7%[15.4 µM], gsp antag inconclusive and Sfp inh -6%.
COc1ccc(N2CC(C(=O)N[C@@H](CC(C)C)C(=O)NC3CCCCC3)CC2=O)cc1 (stereo partly drawn) was read as TRPV1 potentiator 24, CtBP-E1A blk 13, gsp agonist 8%, gsp antag 7% and Sfp inh 8%.
Screening O=C(C(Cl)Cl)N1CC2CCC(CC2)C1 returned CtBP-E1A blk 14, gsp agonist 7% and gsp antag -2%.
`CN1CCN(C(=O)/C(=C/c2ccc(F)cc2)NC(=O)c2ccccc2)CC1` gave Menin-MLL FL inh 0.6, TRPV1 potentiator -6, CtBP-E1A blk 3, gsp agonist 12%[15.4 µM], gsp antag 2% and Sfp inh 6%.
Cc1ccccc1Cn1c(C)nc2ccccc21 was read as Menin-MLL FL inh 2.5, TRPV1 potentiator 14, CtBP-E1A blk -3, gsp agonist -29%, gsp antag -12% and Sfp inh 3%.
Cc1ccc(S(=O)(=O)N(C)CC(=O)NCC(c2ccco2)N(C)C)cc1 (stereo not drawn) was read as TRPV1 potentiator -2, gsp agonist -30%[inhibitor], gsp antag 8% and ClpP mod -2.0%.
CCN(CC)S(=O)(=O)c1ccc(S(=O)(=O)Nc2ccc3c(c2)oc2ccccc23)cc1 was read as Menin-MLL FL inh 3.2, TRPV1 potentiator -7, CtBP-E1A blk -1, gsp agonist 24%, gsp antag -35%, ClpP mod 0.5% and Sfp inh 2%.
For CN(C)CCN1C(=O)C(O)=C(C(=O)c2cc3ccccc3o2)C1c1ccccn1 (stereo not drawn) the results were Menin-MLL FL inh 4.1, TRPV1 potentiator -7 and Sfp inh -3%.
For CCOc1ccc(NC(=O)c2ccc(NS(=O)(=O)c3cccc4cccnc34)cc2)cc1 the results were CtBP-E1A blk 1, gsp agonist -9% and gsp antag -23%.
For Cc1nc([N+](=O)[O-])c(C(=O)OCc2ccccc2C#N)n1C the results were Menin-MLL FL inh 3.0, TRPV1 potentiator -1, CtBP-E1A blk 3, gsp agonist inconclusive, gsp antag 9%, ClpP mod 0.3% and Sfp inh 19%.
For Cc1ccc(S(=O)(=O)NCCCOC(=O)Nc2ccncc2)cc1 the results were Menin-MLL FL inh 2.1, TRPV1 potentiator -7, CtBP-E1A blk 0, gsp agonist inconclusive, gsp antag -4%, ClpP mod 1.0% and Sfp inh 16%.
Screening COC(=O)c1ccccc1NC(=O)C(C)NS(=O)(=O)c1ccc(OC)cc1 (stereo not drawn) returned Menin-MLL FL inh 1.8, TRPV1 potentiator 5, CtBP-E1A blk -7, gsp agonist 16%, gsp antag -10%, ClpP mod inconclusive and Sfp inh -2%.
CCOC(=O)c1cc(-c2ccccc2)n(CCC(=O)N2CCN(c3ccccc3OC)CC2)c1C was read as Menin-MLL FL inh 13, TRPV1 potentiator -6, CtBP-E1A blk -28, gsp agonist -6%, gsp antag -18%, ClpP mod 1.2% and Sfp inh -11%.
COC(=O)C1=C(C(=O)OC)[C@@H]2Nc3ccccc3[C@@]23C[C@@H](C(=O)OC)N(C(=O)c2cc(C)oc2C)C3=N1 was read as Menin-MLL FL inh 7.6[11.7 µM], CtBP-E1A blk -13, gsp agonist -17%, gsp antag -7%, ClpP mod -1.1% and Sfp inh -11%.
`CCN(CC(=O)Nc1ccccc1OC)C(=O)CN1C(=O)NC2(CCCC2)C1=O` gave TRPV1 potentiator 10, CtBP-E1A blk 7, gsp agonist 20%[15.4 µM] and gsp antag -2%.
O=C(O)/C(=C\c1ccc(Cl)cc1)c1ccc(S(=O)(=O)N2CCCC2)s1 was read as TRPV1 potentiator -8, CtBP-E1A blk -9, gsp agonist -21%, gsp antag 10% and ClpP mod -5.6%.
`Cc1nnc(SCC(=O)N2CCC(c3noc4ccc(F)cc34)CC2)s1` gave Menin-MLL FL inh 1.2, TRPV1 potentiator -17, CtBP-E1A blk 4, gsp agonist 13%, gsp antag -6%, ClpP mod -1.9% and Sfp inh 1%.
`CC1(C)CC2(CCO1)C(Nc1ccccc1)=NC(=S)N2c1ccccc1` (stereo not drawn) gave Menin-MLL FL inh 3.3, CtBP-E1A blk 3, gsp agonist -22%[15.4 µM], gsp antag -2%, ClpP mod -2.7% and Sfp inh -6%.
For NC(=O)CSc1nnnn1-c1ccc2c(c1)OCCO2 the results were Menin-MLL FL inh -1.3, TRPV1 potentiator -2, CtBP-E1A blk 0, gsp agonist -11%, gsp antag 5%, ClpP mod -2.5% and Sfp inh 6%.
`Cc1nn(CC(=O)Nc2ccc(F)cc2)c(=O)c2ccccc12` gave Menin-MLL FL inh 1.2, TRPV1 potentiator inconclusive, gsp agonist -2%, gsp antag 8%, ClpP mod -5.3% and Sfp inh 9%.
For COc1ccc(C(=O)N2CCN(C)C(=O)[C@@H]2C)cc1OC1CCN(C(C)C)CC1 the results were TRPV1 potentiator -23, CtBP-E1A blk 2, gsp agonist 12%, gsp antag 7%, ClpP mod 0.7% and Sfp inh 14%.
Screening CC(C)n1c(SCCCc2ccccc2)nc2c1c(=O)[nH]c(=O)n2C returned Menin-MLL FL inh 1.7, TRPV1 potentiator 0, CtBP-E1A blk 0, gsp agonist -65%[inhibitor], gsp antag 18%, ClpP mod -0.3% and Sfp inh inconclusive.
`Cc1ccc(NC(=O)Cn2c(/C=C/c3ccccc3)nc3ccccc32)cc1C` gave Menin-MLL FL inh -1.6, TRPV1 potentiator 21, CtBP-E1A blk 2, gsp agonist -15%, gsp antag -4%, ClpP mod 28µM* and Sfp inh -21%.
For COc1ccc(-c2nnc(SCc3nnc(-c4ccc(Cl)cc4)o3)n2-c2ccccc2)cc1 the results were Menin-MLL FL inh 4.1, TRPV1 potentiator -20, CtBP-E1A blk -13, gsp agonist -2%, gsp antag inconclusive, ClpP mod -4.6% and Sfp inh -14%.

No enrichment for hits. Share with any hit: about 5.3%.
